A1 inh: caspase 3/7 activation in MEF A1-2A-BIM cells, primary screen, A1 inhibitor project, cell-based, luminescence, HTS; 0.066% of 330,000 active; AID 2462, 2010; caspase activation, % (test concentration not listed); Caspase-Glo 3/7 luminescence, 3 h; percent of clofoctol response, vehicle zero;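 active = over half of replicate activation scores above 10%, or exactly half above 10 with the replicate mean above 10; inconclusive = replicate mean below 10 yet half the replicates above 10; inactive = over half of replicates below 10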;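 also: wells of about 30 µL received 50 nL stock; many hits fall short of the cut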
LANA-H2B inh: blockers of LANA interaction with H2A/H2B – biochemical, FP readout, HTS, primary screen; cell-free LANA-H2A/H2B peptide, fluorescence polarization; 0.6% of 320,000 active; inhibition, % (concentration not given with the values); in the data active = inhibition mostly above about 10%, no sharp cut-off; inactive = mostly below about 6.7%;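 also: stock transfer was 7.5 nL into about 10 µL; 0% = median of vehicle wells and 100% = median of positive control wells; one replicate is shown; the record names a cut of 25% in any replicate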
Beta2AR agonist: beta2AR agonists driving receptor internalization, primary screen, cell-based, FAP fluorogen, flow cytometry; Beta-2 adrenergic receptor (Homo sapiens), P07550; Am2.2-beta2AR cells; reference of the scale not given here; response, % (test concentration not listed); 0.43% of 340,000 active; AID 504454, 2011;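 active = response above a set limit, near 3 SD of response in nonfluorescent compounds, cut at about 42% in these data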;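 also: stock transfer was 100 nL into about 11 µL; a reference agonist was the positive control; negative values mostly stem from fluorescent compounds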
Target sequence (P07550 whole entry, looked up): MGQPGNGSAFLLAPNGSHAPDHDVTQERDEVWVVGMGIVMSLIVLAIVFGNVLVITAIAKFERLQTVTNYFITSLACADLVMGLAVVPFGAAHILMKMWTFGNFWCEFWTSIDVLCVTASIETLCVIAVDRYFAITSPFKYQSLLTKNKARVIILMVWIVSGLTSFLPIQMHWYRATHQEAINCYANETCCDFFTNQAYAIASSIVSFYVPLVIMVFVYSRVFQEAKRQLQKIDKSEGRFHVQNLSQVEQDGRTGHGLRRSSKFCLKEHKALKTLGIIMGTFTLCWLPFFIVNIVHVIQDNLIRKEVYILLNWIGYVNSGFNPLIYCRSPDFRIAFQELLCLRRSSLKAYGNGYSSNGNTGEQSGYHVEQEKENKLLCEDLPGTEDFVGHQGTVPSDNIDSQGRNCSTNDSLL
UCH37 inh: inhibitors of human UCH37 deubiquitinase, primary screen, biochemical, Ub-AMC cleavage, fluorescence. Ubiquitin carboxyl-terminal hydrolase isozyme L5 (Homo sapiens), Q9Y5K5. purified proteasome/UCH37. inhibition, % (no concentration beside the values). 0.33% of 330,000 active. AID 588478, 2011;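 active = mean of two replicates above 20%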;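 also: 0% = compound-free wells with enzyme and 100% = wells lacking proteasome; stock transfer was 100 nL into about 20 µL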
Target sequence (Q9Y5K5 whole entry, looked up): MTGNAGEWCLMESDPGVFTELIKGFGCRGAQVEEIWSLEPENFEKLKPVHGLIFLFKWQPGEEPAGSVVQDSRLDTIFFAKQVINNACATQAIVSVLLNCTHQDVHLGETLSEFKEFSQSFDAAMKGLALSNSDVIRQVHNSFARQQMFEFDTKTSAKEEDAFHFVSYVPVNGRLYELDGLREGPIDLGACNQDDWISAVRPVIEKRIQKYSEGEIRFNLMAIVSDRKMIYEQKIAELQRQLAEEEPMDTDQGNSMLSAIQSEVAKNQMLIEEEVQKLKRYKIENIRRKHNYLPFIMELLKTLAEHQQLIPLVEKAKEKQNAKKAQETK
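Reagent: Ub-AMC substrate; assay system: Proteasome-associated human UCH37 deubiquitinase; controls: no-proteasome and no-compound wells; read-out: % inhibition of Ub-AMC cleavage fluorescence; timing: 30 min preincubation with enzyme, 25 min cleavage at room temperature; signal: AMC fluorescence from Ub-AMC cleavage, excitation 355 nm, emission 460 nm; buffer or medium: Tris-HCl pH 7.4 plus ovalbumin, ATP-MgCl2, DTT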
E coli growth: E. coli growth inhibition, primary screen, OD600. 0.21% of 330,000 active. AID 1053175, 2014. Escherichia coli growth, 23 h; hits give low values. OD600 absorbance (test concentration not listed);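 active = OD600 absorbance below the run mean of sample wells minus 3.6 SD, in any replicate, cut at about 0.56 in these data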;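 also: stock transfer was 300 nL into about 60 µL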
HNF4A DNA FP: change in binding of human HNF4A to DNA, primary screen, biochemical, fluorescence polarization, FITC-DNA; Hepatocyte nuclear factor 4-alpha (Homo sapiens), P41235; 1 h; activity change, % at 10 µM; 0.3% of 360,000 active; in the data active = activity change above about 30%, passing the limit was not always enough;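 also: controls were the assay level and a saturating level of protein; the project sought stronger binding though the title names inhibitors; some compounds called inactive have numbers as strong as hits; positive values seem to mean higher polarization but the record does not say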
Vif TR-FRET: inhibitors of Vif binding to APOBEC3G peptide, primary screen, biochemical, TR-FRET, GST-Vif 1-94, biotin-A3G peptide, dose response retest (AID 1117319); TR-FRET GST-Vif / biotin-A3G peptide binding; higher % means a stronger effect; test concentration not given here; strong numbers were not always called active; inhibition, %, or IC50 in µM where a hit was titrated; 0.57% of 260,000 active;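 active = above the screen mean plus three standard deviations and confirmed in dose response; inconclusive = results disagree or hit not tested in dose response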;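 also: Vif residues 1-94 fused to GST binding biotinylated APOBEC3G peptide 110-148; 0% = full assay without inhibitor and 100% = GST in place of GST-Vif; retest series ran down from 100 µM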
Starred values were filed as active, the others as inactive; i = inactive; ? = inconclusive; nt = no result given; & = joins results of further samples.

structure	A1 inh	LANA-H2B inh	Beta2AR agonist	UCH37 inh	E coli growth	HNF4A DNA FP	Vif TR-FRET
COc1ccccc1C(=O)Nc1ccc2oc(-c3ccc(F)cc3)nc2c1	-1.1	4.9	5	-200	0.65	-0.7	-10%
Cc1sc2ncnc(Sc3ccccc3C(=O)O)c2c1C	0.0	4.3	-2	5.4	0.7	-3.4	-62%
CC(C)(C)CC(=O)NC(=S)N1CCCCCC1	0.1	0.6	11	1.6	0.69	3.0	-2%
CCCn1c(SCC(=O)Nc2ccccc2N2CCCCC2)nc2c1c(=O)n(C)c(=O)n2C	0.0	2.8	6	0.0	0.66	-0.1	-1%
COc1cccc(C2Nc3cccc4cccc(c34)N2)c1	-0.5	-1.9	20	-2.3	0.64	-3.8	4%
Cc1c(NC(=O)c2ccc(F)c(S(=O)(=O)N3CCOCC3)c2)c(=O)n(-c2ccccc2)n1C	-0.3	2.0	4	5.8	0.66	-5.9	-2%
COc1ccc(C2(C)NC(=O)N(CC(=O)Nc3cccnc3Cl)C2=O)cc1 (stereo not drawn)	-1.0	-7.5	4	nt	nt	-0.3	13%
CN(C)c1cccc(C(=O)Nc2ccc3nc4n(c(=O)c3c2)CCCCC4)c1	0.3	-2.5	7	-4.5	0.77	4.5	0%
CCc1nnc(NC(=O)CSc2nc3ccccc3o2)s1	-0.6	-2.1	-15	1.5	0.65	-1.9	15%
Cc1cccc2[nH]c(SCC(=O)O)nc12	2.3	0.1	-5	1.7	0.65	1.6	8%
CC(C)Oc1ccccc1C(=O)NC(CO)C(=O)O (stereo not drawn)	3.5	-2.7	1	3.0	0.71	6.8	-6%
COC(=O)c1cccc(C23CC4(C2)[C@H](CN(Cc2cccnc2)[C@@H]4c2ccccc2)C3c2ccccc2)c1 (stereo partly drawn)	0.6	0.0	5	3.9	nt	9.8	-2%
Cn1c(=O)c2c(O)cc(=O)[nH]c2n(-c2ccccc2)c1=O	-0.6	-4.2	-3	0.2	0.73	4.5	4%
C=CCOc1c(Br)cc(CNc2ccc(NC(=O)C(C)C)cc2)cc1OCC	0.1	-4.6	-2	4.3	0.62	8.8	nt
Cc1ccccc1-n1nnnc1SCC(=O)NCC1CCCO1 (stereo not drawn)	-1.2	-1.4	5	4.6	0.66	1.2	nt
Cc1cc(C)n2nc(C(=O)N/N=C/c3ccc(Cl)cc3)nc2n1	1.4	3.9	-17	nt	nt	3.3	1%
Cc1nc2ccccc2n1CCC(=O)O	0.7	-4.0	0	-2.8	0.73	-4.9	0%
COc1ccc(C(=O)N2CCc3cc(OC)c(OC)cc3C2c2cccc([N+](=O)[O-])c2)cc1OC (stereo not drawn)	0.2	3.0	7	5.3	0.76	-1.4	5%
Cc1cccc(N=C2NN=C(c3c[nH]c4ccccc34)CS2)c1	-0.1	0.8	-11	0.9	0.68	7.8	nt
COc1ccccc1NS(=O)(=O)c1cccc2nsnc12	-0.7	-2.0	-2	1.8	0.68	0.4	nt
CCOC(=O)N1CCN(C(=O)Nc2cccc(Cl)c2)CC1	-0.3	3.5	-1	-1.2	0.66	0.8	7%
Cc1cc(C(=O)Nc2ccncc2)ccc1[N+](=O)[O-]	-3.2	0.0	13	2.2	0.64	-1.9	-5%
CCC(C)c1ccccc1OCCCNC1CCCC1 (stereo not drawn)	-0.1	-1.0	2	4.0	0.63	-1.3	nt
N#Cc1nc(-c2ccccc2Cl)oc1N1CCN(C(=O)c2ccco2)CC1	0.2	3.2	13	-81	0.69	-4.0	-3%
O=C(Cc1cccs1)Nc1ccc(-c2nc3ccccc3[nH]2)cc1	-8.7	3.1	1	-70	0.77	3.1	-12%
CCCn1c(SCC(=O)Nc2cc(Cl)ccc2OC)nc(O)cc1=O	0.5	-1.8	-1	5.0	0.74	2.9	nt
CCn1cc(C(=O)N(CCC(C)C)c2c(N)n(Cc3ccccc3)c(=O)[nH]c2=O)c(=O)c2ccc(C)nc21	0.3	-0.7	5	4.2	0.67	-1.5	-5%
CCc1ccc(NC(=O)c2cc(CC(C)C)on2)cc1	-0.4	5.5	7	1.2	0.77	-0.2	?
O=C(CSc1nc2ccsc2c(=O)n1CC1CCC(C(=O)O)CC1)NCCc1ccc(Cl)cc1 (stereo not drawn)	-2.0	-0.3	3	-1.3	0.73	-0.2	-4%
COc1ccccc1NC(=O)NNC(=O)c1ccc(-c2ccccc2)cc1	-0.8	-3.9	-1	4.6	0.65	-1.3	10%
C=CCn1c(CNS(=O)(=O)c2ccc(Br)cc2)n[nH]c1=S	-0.5	-7.6	-5	4.2	0.74	2.4	nt
COc1ccc(S(=O)(=O)N2CCN(C(=O)c3cc(-c4ccccc4OC)n[nH]3)CC2)cc1	-0.5	1.1	2	6.3	0.74	0.4	40%
Cn1c(=O)oc2cc(S(=O)(=O)N3CCCC(C(=O)NCc4cccs4)C3)ccc21 (stereo not drawn)	-0.2	7.4	-40	6.5	0.73	2.7	-3%
COc1ccc(NC(=S)NC(NC(=O)c2cccc(C)c2)C(Cl)(Cl)Cl)c([N+](=O)[O-])c1 (stereo not drawn)	-1.0	1.7	-9	2.9	0.68	1.9	28%
CC1CCCN(CC(O)CN)C1 (stereo not drawn)	1.1	6.2	3	1.0	0.69	6.4	?
C#CCOCCOCCOCCNc1nc(N2CCN(C(=O)[C@H](CCCCN)n3cc([C@@H](N)[C@H](C)CC)nn3)CC2)nc(N2CCN(C(=O)[C@H](CCCCN)n3cc([C@@H](N)CC(N)=O)nn3)CC2)n1	0.9	-2.1	0	2.8	nt	19	nt
CC1=NN(c2ccccc2)C(=O)/C1=C\c1ccc(Br)s1	-0.4	0.4	17	4.9	0.69	-2.6	nt
N#CC1=C(N)OC(c2ccccc2)=C(C#N)C1c1ccc2c(c1)OCO2 (stereo not drawn)	0.0	-1.8	-20	4.1	0.69	1.7	7%
O=C(CCc1nnc2ccc(NCc3ccccc3Cl)nn12)NC1CCCCC1	0.0	1.8	-10	3.7	0.72	-0.2	nt
COc1ccc(C2C(C(=O)O)CC(=O)N2C2CCCCC2)cc1 (stereo not drawn)	-0.3	0.9	0	5.4	0.67	-5.2	-6%
CC(CN1CCOCC1)c1ccccc1 (stereo not drawn)	0.2	-0.8	3	-1.9	0.64	1.3	-7%
C=CCN1C(=O)CSC1=Nc1ccc(C(=O)O)cc1	1.0	-1.0	4	-0.4	0.68	2.6	-14%
C=C(C)[C@@H]1CC[C@]2(C(=O)O)CC[C@]3(C)[C@H](CC[C@@H]4[C@@]5(C)CC[C@H](O)C(C)(C)[C@@H]5CC[C@]43C)[C@@H]12	-0.8	-1.0	4	-1.0	nt	-0.6	-8%
CC(C)(C)Nc1ncnc2c1cnn2-c1ccccc1	-1.3	-5.3	12	6.6	0.72	-2.2	nt
CC(=O)c1cccc(N(C(=O)CNC(=O)c2ccco2)C(C(=O)NC2CCCC2)c2ccncc2)c1 (stereo not drawn)	-0.5	2.3	-15	-1.4	0.67	-2.3	nt
CCCCCn1c(Sc2ncccn2)nc2c1c(=O)[nH]c(=O)n2C	0.3	-5.7	-9	5.2	0.7	-2.1	5%
Cc1cc(C)n2nc(SCC(=O)N3CC(C)CC(C)C3)nc2n1 (stereo not drawn)	1.1	2.3	-4	0.0	0.72	2.9	-3%
O=C(Cn1nnc2ccccc21)C1CC1	0.5	-0.2	6	-6.8	0.72	4.2	0%
O=C(C1=C[C@H](C2CC2)C[C@H](OCCCCO)O1)N1CCN(Cc2ccc3c(c2)OCO3)CC1	-0.3	-4.5	0	4.4	nt	-1.7	14%
Cn1c(CCN2CCCCC2)nc2cc(NS(=O)(=O)c3ccc(Cl)cc3)ccc21	-0.5	2.7	-1	4.5	0.7	0.7	5%&2%
CCCc1cc(=O)oc2cc(OCC(=O)NC3CCN(Cc4ccccc4)CC3)ccc12	-0.2	-1.7	-6	-17	0.69	-0.5	nt
Cc1ccc(S(=O)(=O)N2[C@@H](c3ccc(Br)cc3)C(C(=O)O)=C[C@H]2C(C)(C)C)cc1	0.4	i	4	1.8	0.69	1.4	6%
CCCCCOC(=O)c1[nH]c2c(c1C)C(=O)C(C(=O)OC)C(C)C2 (stereo not drawn)	0.2	-1.5	3	0.0	0.7	-1.1	-3%
OC(CNCc1ccc(Cl)cc1)COc1ccccc1 (stereo not drawn)	-1.1	0.1	-8	3.2	0.65	-1.6	-8%
O=C(O)C(Oc1ccc2c3c(c(=O)oc2c1)CCC3)c1ccccc1 (stereo not drawn)	-1.9	-2.6	1	-89	0.73	-2.4	0%
CCOc1ccc(C(=O)Nc2cccc(C(=O)O)c2)cc1Cl	-13	-0.6	7	0.6	0.7	2.9	2%
O=C(Nc1ccccc1-c1ccccc1)NC1CCN(CC(=O)N2CCOCC2)CC1	0.3	6.3	-1	2.2	0.69	-2.0	-12%
CCOc1ccc(C(=O)NCC(=O)OCC(=O)Nc2nnc(-c3ccccc3)o2)cc1	-1.9	1.1	-2	-0.5	0.68	-4.0	-5%
CCOc1ccc(S(=O)(=O)Nc2c(C)n(C)n(-c3ccccc3)c2=O)cc1	-1.1	-2.3	0	4.6	0.72	4.6	nt
CC1CCN(c2ccc(C(=O)OCC(=O)NCCN3C(=O)CSC3=O)cc2[N+](=O)[O-])CC1	0.4	2.4	-9	5.2	0.69	-1.6	6%

Some of these compounds in order of length of the SMILES, lowest first:
structure	A1 inh	LANA-H2B inh	Beta2AR agonist	UCH37 inh	E coli growth	HNF4A DNA FP	Vif TR-FRET
O=C(Cn1nnc2ccccc21)C1CC1	0.5	-0.2	6	-6.8	0.72	4.2	0%
Cc1cc(C)n2nc(SCC(=O)N3CC(C)CC(C)C3)nc2n1 (stereo not drawn)	1.1	2.3	-4	0.0	0.72	2.9	-3%
C=CCn1c(CNS(=O)(=O)c2ccc(Br)cc2)n[nH]c1=S	-0.5	-7.6	-5	4.2	0.74	2.4	nt

(cont.)
structure	A1 inh	LANA-H2B inh	Beta2AR agonist	UCH37 inh	E coli growth	HNF4A DNA FP	Vif TR-FRET
Cc1ccc(S(=O)(=O)NCC(=O)N2CCN(c3ccc(F)cc3)CC2)cc1	-0.2	3.8	-8	-0.7	0.73	1.8	nt
CCOC(=O)Cc1csc(NC(NC(=O)OCC)(C(=O)OCC)C(F)(F)F)n1 (stereo not drawn)	-1.1	3.8	2	2.3	0.7	-0.4	-6%
COc1ccc(OC)c(C2C=C(c3ccc(C)c(C)c3)Nc3nnnn32)c1 (stereo not drawn)	0.3	-2.5	0	-4.0	0.77	0.0	-7%
O=C(c1ccccn1)N1CCCC(N2CCN(Cc3ccc4c(c3)OCO4)CC2)C1 (stereo not drawn)	-0.6	1.1	8	1.0	0.65	-1.2	8%
Cc1ccc(-n2nc3c(c2NC(=O)C(C)(C)C)CSC3)c(C)c1	0.2	0.2	-1	2.2	0.67	-1.1	-4%
O=C(NC1(C(F)(F)F)N=C2SCCN2C1=O)c1ccco1 (stereo not drawn)	-0.7	-2.0	-6	1.5	0.75	-1.6	13%
COc1ccc(S(=O)(=O)N2CCCCC2)cc1NC(=O)CCCOc1ccccc1	-0.2	-0.1	-1	0.1	0.69	-2.7	nt

No enrichment for hits; 2.1% or so of the library scored in one or more.
